Sa ugtP lethal = growth inhibition of ugtP-null S. aureus, primary screen, RN4220 ugtP deletion, OD600. 16 h; some inactives read as strong as hits. growth inhibition, % (concentration not given with the values). 330,000 compounds, 0.54% hits. AID 1259309, 2017;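 active = z-score under -3 and OD600 up to 0.15 on both plates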;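 note: plate controls were untreated wells for no effect and antibiotic for full effect; wells of about 80 µL received 100 nL stock; the first replicate is given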
Autofluor counter = counter-screen for toxin protease inhibitors: compound fluorescence | compound autofluorescence counterscreen, microsphere flow cytometry; hits give high values | AID 624483 | 360,000 compounds, 3.1% hits | fluorescence intensity (no concentration beside the values);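 active = at least 3 SD above the mean of all compounds, about 16000 in these data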;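 note: 100 nL of 1 mM stock went into each well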
RN4220 kill = growth inhibition of S. aureus RN4220, primary screen, OD600. 16 h. inhibition, % (test concentration not listed). 330,000 compounds, 0.33% hits;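 active = z-score of -3 or lower and OD600 up to 0.18 on both plates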;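 note: plate controls were untreated cells for no effect and reference antibiotic for full effect; stock transfer was 100 nL into about 80 µL; one replicate is shown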
PrP UTR inh = inhibition of PrP 5' UTR reporter expression | cell-based PrP 5' UTR mRNA reporter, plate reader | inhibition, % (test concentration not listed) | 340,000 compounds, 0.35% hits | AID 488862, 2010;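 active = every replicate at 50% or more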;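 note: 0 = median of the neutral control wells; tested in H4 reporter cells; numbers are from one replicate; inactives centre near -14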
BJeLR viability = MLPCN primary cell-based screen for lethality selective to Ras in HRASV12 cells. BJeLR (HRASV12) viability, CellTiter-Glo ATP luminescence, 48 h; reference of the scale not given here. inhibition, % (no concentration beside the values). 300,000 compounds, 0.17% hits. AID 1554, 2009;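 active = replicate mean above 50%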;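 note: 50 nL library stock added to about 25 µL; numbers are from one replicate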
Mtb hypoxia inh = PubChem AID 1159583 | M. tuberculosis hypoxia-regulated fluorescent reporter, fluorescence | fluorescence inhibition, % (test concentration not listed) | 300,000 compounds, 0.1% hits;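 active = 35 to 45% if threefold the growth effect, above 45% if 1.5-fold the growth effect; inactive = the rest, general growth blockers included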;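 note: wells of about 50 µL received 100 nL stock; 0% = vehicle wells and 100% = reference inhibitor wells; whole bacteria with a GFP reporter of the hypoxia response; strong numbers were not always called active; many hits fall short of the cut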
Mtb hypoxia inh growth = also measured in Mtb hypoxia inh; calls as there; growth inhibition, %; measured here: M. tuberculosis growth (absorbance);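 0% = vehicle and 100% = reference antibiotic; read after six days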
Numbers without * were called inactive; . = not tested or not shown.

nr	smiles	Sa ugtP lethal	Autofluor counter	RN4220 kill	PrP UTR inh
1	CN1CCN(C(=O)/C(=C/c2cn(S(=O)(=O)N(C)C)c3ccccc23)NC(=O)c2ccccc2Cl)CC1	0	5495	-2.6	4
2	O=C(c1ccccc1F)N(Cc1ccccc1)Cc1ccccc1	12	3140	8.4	-14
3	COc1cc(NC(=O)CCC(=O)c2cccs2)cc(OC)c1	3	5866	0.8	-34
4	CC(=O)Nc1ccc(NC(=O)CN(c2cccc(C)c2)S(C)(=O)=O)cc1	-2	22430*	-2.3	-8
5	Cc1ccnc(NC(=O)C2CCN(S(=O)(=O)c3ccc(Cl)c(C(F)(F)F)c3)CC2)c1	-5	4304	0.6	-30
6	CCOC(=O)c1cc(-c2ccc([N+](=O)[O-])cc2)nc2c1c(=O)[nH]c(=O)n2Cc1ccccc1	-4	5306	0.2	-12
7	Cc1nn(C)cc1S(=O)(=O)N1CCN(Cc2cccc(Cl)c2)CC1	-2	4628	4.9	-24
8	CC(NC(=S)Nc1ccccc1Cl)C(c1cccs1)N1CCCC1 (stereo unspecified)	-3	2501	15	-19
9	COc1ccc(NC(=O)c2ccccc2Cl)cc1NC(=O)CN1CCOCC1	19	2525	27	4
10	COC(=O)CNC(=O)Cn1nc(C)c([N+](=O)[O-])c1C	3	4591	1.6	-19
11	N#Cc1ccccc1Cn1c(=O)n(Cc2ccc(C(=O)NCc3ccco3)cc2)c(=O)c2sccc21	8	5209	7.2	-2
12	COc1ccc(CC(=O)Nc2ccc(C(=O)NC(C)(C)C)cc2)cc1	0	2512	-0.9	-17

nr	BJeLR viability	Mtb hypoxia inh	Mtb hypoxia inh growth
1	-13	-2	7
2	5	6	10
3	2	-2	7
4	21	4	7
5	12	-7	-5
6	-8	3	6
7	-9	6	2
8	6	15	12
9	-5	7	-2
10	0	4	-1
11	0	.	.
12	4	-4	9

More entries follow.
nr	smiles	Sa ugtP lethal	Autofluor counter	RN4220 kill	PrP UTR inh
13	COc1ccc(S(=O)(=O)N(CC(=O)NCc2ccccn2)Cc2ccccc2)cc1	14	2964	3.7	-11
14	COc1ccc(C=NN2CCN(c3ccccc3OC)CC2)cc1OC	-1	.	1.9	.
15	N/C(=N\OC(=O)COc1ccc2ccccc2c1Br)c1ccncc1	-2	.	-2.5	.
16	CC1(C)NC(=O)N(CN2C(=O)NC(C)(C)C2=O)C1=O	1	9110	1.7	-1
17	c1ccc(NC2=NCCN2CC2CCCCC2)cc1	2	2933	3.0	0
18	CCCN(C(=O)CSc1n[nH]c(-c2ccc(OC)cc2)n1)c1c(N)n(Cc2ccccc2)c(=O)[nH]c1=O	6	3501	2.7	-11
19	N#Cc1c(-c2ccccc2)cc(-c2ccccc2)nc1SCC(=O)O	-6	3593	25	0
20	O=C(c1ccc(Cn2cc(Cl)cn2)o1)N1CCN(Cc2ccc3c(c2)OCO3)CC1	10	3681	4.0	-4
21	COc1ccccc1CCC(=O)NC1CCCN(c2ccc(C(F)(F)F)cn2)C1 (stereo unspecified)	3	5434	3.0	-8
22	COc1ccc(C=O)cc1COc1c(F)c(F)cc(F)c1F	3	3885	-1.0	-17
23	Cc1ccnc(NC(=O)CCC(=O)c2cc(C)sc2C)c1	-3	7859	5.1	-26
24	CCCC(=O)Nc1nc2ccc(C(=O)OCC)cc2s1	-6	5645	-0.5	-43

nr	BJeLR viability	Mtb hypoxia inh	Mtb hypoxia inh growth
13	-15	8	4
14	.	5	11
15	1	1	4
16	4	5	14
17	.	21	7
18	-2	-7	-4
19	-3	-6	3
20	0	.	.
21	12	7	2
22	-1	.	.
23	3	6	2
24	10	1	-3

Another view of part of the listing above.
[17] c1ccc(NC2=NCCN2CC2CCCCC2)cc1
  Sa ugtP lethal = 2 | Autofluor counter = 2933 | RN4220 kill = 3.0 | PrP UTR inh = 0 | BJeLR viability = . | Mtb hypoxia inh = 21 | Mtb hypoxia inh growth = 7

[18] CCCN(C(=O)CSc1n[nH]c(-c2ccc(OC)cc2)n1)c1c(N)n(Cc2ccccc2)c(=O)[nH]c1=O
  Sa ugtP lethal = 6 | Autofluor counter = 3501 | RN4220 kill = 2.7 | PrP UTR inh = -11 | BJeLR viability = -2 | Mtb hypoxia inh = -7 | Mtb hypoxia inh growth = -4

[19] N#Cc1c(-c2ccccc2)cc(-c2ccccc2)nc1SCC(=O)O
  Sa ugtP lethal = -6 | Autofluor counter = 3593 | RN4220 kill = 25 | PrP UTR inh = 0 | BJeLR viability = -3 | Mtb hypoxia inh = -6 | Mtb hypoxia inh growth = 3

Next part.
nr	smiles	Sa ugtP lethal	Autofluor counter	RN4220 kill	PrP UTR inh
25	Cc1nc(-c2ccccc2)cc(-c2ccccc2)n1	6	4229	4.0	-28
26	O=C(N/N=C/c1ccccc1Cl)c1n[nH]c2c1CCCC2	.	2501	.	-15
27	Cc1ccc(C)c(S(=O)(=O)Nc2cc3c4c(c2)CCC(=O)N4CCC3)c1	9	4983	4.4	-9
28	Cc1ccc(S(=O)(=O)n2nc(OC(=O)c3cccs3)cc2N)cc1	8	4231	-0.1	-23
29	Cc1ccc(C2(c3noc(CN4CCC(c5ccncc5)CC4)n3)CCCC2)cc1	0	2666	9.6	-5
30	CC(C)Cc1ccc(CN2CCCC(NC(=O)Cn3cnnn3)C2)cc1 (stereo unspecified)	7	4385	4.6	-2
31	O=C(NC1CCS(=O)(=O)C1)c1ccc(Br)s1 (stereo unspecified)	2	3034	0.5	-8
32	CCN(CC)c1ccc(C=NNC(=O)Cc2cccs2)c(O)c1	-13	.	6.5	.
33	O=c1c(-c2ccc(O)cc2)coc2cc(OC3OC(CO)C(O)C(O)C3O)cc(O)c12 (stereo unspecified)	-3	3608	7.3	-24
34	COC(=O)NCc1cc2cc(Cl)ccc2[nH]1	-5	9892	1.6	-3
35	CN1C[C@@H]2C[C@@H](c3ccc(C#CC(C)(C)O)s3)N3CCC[C@@]23C1=O	2	2199	-3.1	-20
36	COc1ccc(OCC(O)CNCc2ccco2)cc1 (stereo unspecified)	3	3187	4.6	-9

nr	BJeLR viability	Mtb hypoxia inh	Mtb hypoxia inh growth
25	-6	8	-2
26	32	.	.
27	-4	8	5
28	6	1	2
29	-5	12	-1
30	-6	-5	-5
31	.	9	4
32	.	-6	-6
33	-12	19	8
34	-4	8	14
35	-2	-7	1
36	1	7	10

Next section.
nr	smiles	Sa ugtP lethal	Autofluor counter	RN4220 kill	PrP UTR inh
37	Nc1nnc(CC(=O)Nc2ccccc2)s1	-1	4330	-2.0	-43
38	O=C(c1cccc(F)c1)N1CCN(C2CCCCC2)CC1	8	10210	2.9	-49
39	CCCn1cnc2cc(NC(=O)c3ccco3)ccc21	4	6451	1.1	-28
40	CCCOC(=O)C1=C(C)NC(=O)NC1c1cccc2ccccc12 (stereo unspecified)	11	4381	5.5	-7
41	O=C1NCCN(Cc2ccc(Cl)c(F)c2)C1CC(=O)N1CCCO1 (stereo unspecified)	8	2610	1.9	-21
42	COc1ccc(C(=O)NN/C(=N/S(=O)(=O)c2ccc(C)cc2)c2ccccc2)cc1	0	3318	6.3	-91
43	COc1ccc(-c2cc(-c3ccc(OC)cc3)c(C#N)c(SC)n2)cc1	31	4280	-1.0	-6
44	COc1ccc(-c2csc(Nc3ccc(S(=O)(=O)Nc4cc(C)on4)cc3)n2)cc1	.	4120	.	-1
45	COCC(C)NC(=O)c1ccc(CN2CCc3ccccc3C2)cc1 (stereo unspecified)	1	2790	3.0	-18
46	O=C(Nc1ccn(Cc2ccccc2)n1)c1ccc2c(c1)OCO2	0	2638	5.0	-35
47	N#CCCCCN1c2cccc3cccc(c23)S1(=O)=O	9	4054	1.3	-19
48	COc1cccc(NC(=O)[C@@H]2CCCN2C(=O)C2CCN(S(=O)(=O)c3ccc(C)cc3)CC2)c1	-2	9690	0.1	-1

nr	BJeLR viability	Mtb hypoxia inh	Mtb hypoxia inh growth
37	-9	-8	10
38	2	17	2
39	7	13	-2
40	11	15	12
41	-5	5	0
42	-4	22	8
43	4	.	.
44	8	.	.
45	-2	13	5
46	-3	.	.
47	-10	.	.
48	-5	-7	7

Following part.
nr	smiles	Sa ugtP lethal	Autofluor counter	RN4220 kill	PrP UTR inh
49	CCc1ccc(NC(=O)N2CCc3ccccc3C2)cc1	10	3964	0.6	-91
50	O=C(O)Cc1ccc(C(=O)c2ccc(F)cc2)s1	3	4210	2.3	-19
51	CC(CN1CCN(C)CC1)OC(=O)c1ccc(F)cc1 (stereo unspecified)	2	3365	2.2	-26
52	Cc1oc2cc3oc(=O)c4c(c3cc2c1C)CCC4	7	5466	3.3	-61
53	Cc1cc(C)n2nc(CNS(=O)(=O)c3ccc(F)c(C)c3)nc2n1	-8	5574	-2.2	-19
54	COc1ccc(CN(C)CC(=O)Nc2ccc(N3CCOCC3)cc2)cc1OC	0	1886	5.0	-16
55	COc1ccc(S(=O)(=O)N2CCOCC2)cc1NC(=O)c1ccc2c(c1)OCCO2	0	4152	4.7	-34
56	COc1ccccc1CSc1nc2c(c(=O)n(C)c(=O)n2C)n1C	9	4018	3.8	-8
57	CC(C)C(=O)Nc1ccc2c(c1)oc1ccccc12	-2	4478	-7.5	-101
58	C=CCn1c(SCC#N)nc2ccccc2c1=O	1	2967	5.4	15
59	O=C(Nc1ccc2c(c1)C(=O)OC2)c1ccc(Cl)cc1Cl	0	4965	3.0	-41
60	CC(=O)c1sc(-c2ccccc2)cc1NS(=O)(=O)c1ccc(C)cc1	-6	.	1.0	-9

nr	BJeLR viability	Mtb hypoxia inh	Mtb hypoxia inh growth
49	-1	10	-1
50	11	.	.
51	-3	7	8
52	-2	6	15
53	-20	-4	-8
54	-7	-1	1
55	-14	12	2
56	12	6	2
57	-1	.	.
58	-8	4	2
59	-10	2	4
60	8	5	15

New compounds follow:
nr	smiles	Sa ugtP lethal	Autofluor counter	RN4220 kill	PrP UTR inh
61	CCOc1ccc(NC(=S)N2CCC(c3ccc(C)cc3)C2)cc1 (stereo unspecified)	11	4009	1.4	-2
62	CCN(CC)C(=O)c1ccc(NS(=O)(=O)c2ccc(/C=C/C(=O)O)cc2)cc1	16	3213	7.2	3
63	COC(=O)c1ccc(CSCC(=O)Nc2ccccc2)cc1	8	4226	1.4	-13
64	Nc1nc(SCC(=O)NCCN2CCOCC2)nc2sc3c(c12)CCC3	7	2577	1.9	-30
65	CC(=O)Nc1ccc(S(=O)(=O)N2CCN(CCCOc3ccccc3Cl)CC2)cc1	-1	5838	1.4	-24
66	CCC1Oc2ccccc2N(CC(=O)NCc2ccco2)C1=O (stereo unspecified)	0	4347	3.7	-11
67	COc1ccc(/C=N/NC(N)=S)cc1OC(=O)c1ccccc1	.	9220	.	-26
68	COc1ccc(NS(=O)(=O)c2cc(NC(=O)c3cccs3)ccc2N2CCCC2)cc1	-16	2670	10.0	-2
69	O=C(NCCCN1CCOCC1)C(=O)NN=Cc1ccccc1Cl	-1	.	15	.

nr	BJeLR viability	Mtb hypoxia inh	Mtb hypoxia inh growth
61	-9	1	3
62	4	2	1
63	9	3	-2
64	-6	8	2
65	6	-1	0
66	-1	6	5
67	0	.	.
68	-22	-4	3
69	.	7	1

Source: PubChem BioAssay (several laboratories)

The order is random (roughly 4% active in at least one column).
